# Source: PubChem (National Center for Advancing Translational Sciences (NCATS))
# SARS PLP yeast: qHTS of Yeast-based Assay for SARS-CoV PLP; S. cerevisiae expressing SARS-CoV PLpro, growth rescue; control for the full effect not named in the record; Potency, µM (titrated, usually from 32.9 µM), for the others: top-dose activity, positive = growth rescue; 0.19% of 330,000 active; AID 485353, 2010; also: 0% is about no effect; nearly all actives have a fitted effect of over 55% in size; growth read by luminescence after 48 h
# Cruzain inh Det: qHTS Assay for Promiscuous and Specific Inhibitors of Cruzain (with detergent) | purified cruzain, Z-FR-AMC fluorescence, 0.01% Triton | Potency, µM, for inactives: max response, negative = inhibition, hits mostly inhibitors | 0.43% of 200,000 active | AID 1478, 2009; active = well fitted curve in the direction sought with a large enough effect; inconclusive = small, poorly fitted or top-dose-only effect, or another doubt; inactive = no such curve, though single readings can be large; an effect the other way counts as inactive or inconclusive;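 also: plate controls were neutral wells for no effect and buffer without enzyme for full effect; nearly all actives have a fitted effect of over 40% in size; top concentration of the series not given in the record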
# Target sequence (P25779 123-467 limits assumed): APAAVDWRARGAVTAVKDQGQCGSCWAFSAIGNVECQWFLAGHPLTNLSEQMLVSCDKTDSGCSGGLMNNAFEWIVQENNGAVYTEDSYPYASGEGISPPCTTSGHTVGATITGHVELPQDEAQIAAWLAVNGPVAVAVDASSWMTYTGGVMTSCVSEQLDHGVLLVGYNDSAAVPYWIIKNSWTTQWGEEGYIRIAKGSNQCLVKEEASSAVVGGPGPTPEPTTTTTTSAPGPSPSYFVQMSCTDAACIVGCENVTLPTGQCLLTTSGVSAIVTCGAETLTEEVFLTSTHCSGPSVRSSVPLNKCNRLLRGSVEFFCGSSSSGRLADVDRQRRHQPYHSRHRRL
#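 Cysteine protease activity tested under reducing, mildly acidic conditions (100 mM sodium acetate pH 5.5, 5 mM DTT) plus 0.01% Triton X-100. Cruzain 1.5 nM; substrate Z-FR-AMC 2 uM; 15 min compound preincubation at room temperature.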
# Cruzain inh noDet: qHTS Assay for Promiscuous and Specific Inhibitors of Cruzain (without detergent); Cruzipain (Trypanosoma cruzi), P25779; purified cruzain, Z-FR-AMC fluorescence, no detergent; Potency, µM, without a hit: max response, negative = inhibition, hits mostly inhibitors; 2.3% of 200,000 active; AID 1476, 2009; active = well fitted curve in the direction sought with a large enough effect; inconclusive = small, poorly fitted or top-dose-only effect, or another doubt; inactive = no such curve, though single readings can be large; an effect the other way counts as inactive or inconclusive;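 also: plate controls were enzyme without inhibitor for no effect and buffer without enzyme for full effect; nearly all actives have a fitted effect of over 40% in size; top concentration of the series not given in the record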
#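 Purified cruzain at 1.5 nM, pre-incubated 15 min with compound at room temperature in 100 mM sodium acetate pH 5.5, 5 mM DTT, 0.00005% Triton X-100. Reaction started with 2 uM Z-FR-AMC; AMC fluorescence increase over 60 s gives rate.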
# StopGo reporter: High Throughput Screening for Foot and Mouth Disease Virus Antivirals. human cells with a luciferase reporter of 2A StopGo recoding; control for the full effect not named in the record. Potency, µM (top dose mostly 57.9 µM), without a hit: at the top dose signal change, negative = less light. 1.2% of 410,000 active. AID 1159524, 2015; active = well fitted falling curve with a large enough effect; inconclusive = small, poorly fitted or top-dose-only effect; inactive = no such curve, though single readings can be large or run the other way; tested in HEK293T cells; also: % is scaled to controls: 0 for no effect and ±100 for the full control effect; nearly all actives have a fitted effect of over 45% in size; luciferase light after 4 h
# RE007 growth inh: qHTS Assay for Inhibitors of the HIV-1 protein Vpr; S. pombe RE007 Vpr strain, BacTiter-Glo ATP luminescence, 24 h; control for the full effect not named in the record; Potency, µM (top dose mostly 92.2 µM), inactives show at the top dose activity change, negative = less growth; 0.21% of 360,000 active; active = well fitted falling curve with a large enough effect; inconclusive = small, poorly fitted or top-dose-only effect; inactive = no such curve, though single readings can be large or run the other way;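 also: % is scaled to controls: 0 for no effect and ±100 for the full control effect; nearly all actives have a fitted effect of over 50% in size; the assay follows cell death caused by Vpr and the record does not say whether a fall means rescue or toxicity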
#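 Fission yeast RE007 carrying one integrated HIV-1 vpr copy, seeded at OD 0.01 in PMG+AL medium with 23 nL pinned compound. Grown 24 h at 30 degrees; viability read by BacTiter-Glo luminescence after 5 min.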
# NS1 inh: qHTS Assay for Inhibitors of Influenza NS1 Protein Function. S. cerevisiae slowed by influenza A NS1, growth recovery by OD600. Potency, µM (highest dose often 46.1 µM), for the others: at the top dose activity, positive = more growth. 0.4% of 270,000 active. AID 2326, 2010; also: actives are rising curves; nearly all actives have a fitted effect of over 50% in size
#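 In this qHTS, NS1 from influenza A is expressed in budding yeast, where it slows growth. Cells are switched from glucose to 2% galactose medium (pH 6.0, -URA), treated with compound, and growth recovery is read at OD600.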
# Lassa entry inh: qHTS for Inhibitors of binding or entry into cells for Lassa Virus. 1.2% of 300,000 active. Potency, µM (series often up to 37.9 µM), for the others: top-dose activity change, negative = inhibition, actives largely listed as inhibitors. Lassa virus pseudotype entry inhibition, cell reporter; control for the full effect not named in the record; active means well fitted inhibition curve with a large enough effect; inconclusive means small, poorly fitted or top-dose-only effect, or effect the other way; inactive means flat fitted curve, though single readings scatter; tested in HEK293 cells; also: % is scaled to controls: 0 for no effect and ±100 for the full control effect; nearly all actives have a fitted effect of over 50% in size; luciferase read-out
# MARV entry inh: qHTS for inhibitors of binding or entry into cells for Marburg Virus; Marburg virus pseudotyped entry inhibition, cell reporter; control for the full effect not named in the record; about a third of the inactives were read at about 46 µM; Potency, µM (doses to about 37.8 µM), without a hit: top-dose activity change, negative = inhibition, most hits filed as inhibitors; 1.8% of 300,000 active; AID 540276, 2011; active = well fitted inhibition curve with a large enough effect; inconclusive = small, poorly fitted or top-dose-only effect, or effect the other way; inactive = flat fitted curve, though single readings scatter; tested in HEK293 cells; about a fifth of its hits are not listed in these tables; also: % is scaled to controls: 0 for no effect and ±100 for the full control effect; luciferase read-out
# Numbers without * were called inactive; u = inconclusive; x = not tested or not shown; & = joins results of further samples; [ ] = remark or other dose. Unless noted, calls follow the shape of the dose curve; as a rule, active means well fitted rising curve with a large enough effect; inconclusive means small, poorly fitted or top-dose-only effect; inactive means no such curve, though single readings can be large or run the other way. Potency is read from the fitted curve at half-maximal effect. Random draw from the library; about 4.8% have a hit in one of these screens.
SMILES,SARS PLP yeast,Cruzain inh Det,Cruzain inh noDet,StopGo reporter,RE007 growth inh,NS1 inh,Lassa entry inh,MARV entry inh
CSc1nsc(NC(=O)CCNC(=O)c2ccc([N+](=O)[O-])cc2)n1,3%,x,x,23%,-17%,4%,u,2%[46.1 µM]
COc1cccc(/C=c2\s/c(=C\C(=O)C(C)(C)C)[nH]c2=O)c1,0%,x,x,-13%,-8%,x,u,-20%
O=C(/C=C/c1ccccc1)N1CCN(Cc2nc3ccccc3c(=O)[nH]2)CC1,5%,5.1%,-3%,x,12%,-11%,u,3%
Cc1ccc(-c2csc(SCC(=O)Nc3cc(C)on3)n2)cc1,12%,-4.3%,3%,-22%,-19%,0%,-5%,-13%
CCN(CC)CCCNC(=O)Cc1csc2nc(-c3ccc(Cl)cc3)cn12,x,-13%,-15%,26%,x,x,15%[46.1 µM],x
CCS(=O)(=O)c1ccc(-c2cccc(NC(=O)COc3ccc(Cl)cc3)c2)nn1,-9%,x,x,-13%,22%,-11%,x,x
CCc1ccc(NC(=O)CN2C(=O)CC(c3ccccc3)Sc3ccccc32)cc1 (stereo not given),x,0.5%,u,-13%,x,x,x,5%[46.1 µM]
O=S(=O)(Nc1ccc2ccccc2n1)c1ccccc1,-3%,x,x,77%[activator],-4%,-7%,x,x
Cc1ccc2cc(CN(Cc3ccco3)C(=S)NCC3CCCO3)c(=O)[nH]c2c1 (stereo not given),0%,x,x,-13%,-6%,3%,-25%,u
Cc1cc2c(cc1C)C(=O)C(Br)=C(N)C2=O,x,x,x,25%,u,x,0%[46.1 µM],-4%[46.1 µM]
O=S(=O)(Nc1nc2ccccc2nc1Cl)c1ccc(F)cc1,1%,x,x,-17%,6%,-4%,x,x
O=C(NCCCN1CCN(c2ccc(F)cc2)CC1)NC12CC3CC(CC(C3)C1)C2,1%,x,x,-28%,-11%,-2%,u,u
N#CCC(=O)Nc1ccc(C(=O)OCC(=O)N=c2sccn2Cc2ccccc2Cl)cc1,3%,x,x,u,12%,x,1%[46.1 µM],-5%
CN=C(Nc1cc(C)nn1CCC#N)c1ccccc1,3%,4.3%,-1%,x,7%,5%,13%,5%
COc1ccc2c(c1)c1c(c(=O)n(-c3ccccc3C)c(=O)n1Cc1cccc(C(F)(F)F)c1)n2C,x,-4.5%,-2%,-21%,x,x,18%[46.1 µM],x
COc1ccc(NC(=O)C2CCN(c3nnnn3-c3ccccc3)CC2)cc1,0%,0.0%,-6%,-27%,-11%,-4%,-5%,13%
Cc1ccc(OCC(=O)Nc2ccc(N3CCOCC3)cc2)cc1,0%,5.2%,-1%,x,5%,-7%,0%,16%
CCOc1ccc(CN2CCNC(=O)C2CC(=O)NCCN2CCOC2=O)cc1 (stereo not given),3%,x,x,-11%,-4%,20%,23%,15%
COc1cccc(CC(=O)OCC(=O)N(C)CC(=O)Nc2ccc(Cl)c(C(F)(F)F)c2)c1,-2%,x,x,0%,-9%,x,20%[46.1 µM],3%
Cc1cc(OCC(=O)N[C@@H](Cc2ccccc2)C(=O)O)c2c3c(c(=O)oc2c1)CCCC3,-1%,x,x,-12%,1%,u,x,x
CCOC(=O)c1ccccc1C(=O)OCC,x,-4.4%&2.9%,-6%&1%,-23%,-3%,x,x,x
COc1ccc(OC)c(N(C)S(=O)(=O)c2cc3c(cc2C)NC(=O)CO3)c1,3%,x,x,-16%,-5%,-1%,x,x
CC1CCN(C(=O)CSc2nc3c([nH]c4ccccc43)c(=O)n2-c2ccccc2)CC1,x,0.1%,-3%,-3%,x,x,-9%[46.1 µM],x
COc1ccc(C)cc1NS(=O)(=O)c1ccc(Br)s1,-12%,-1.2%,-19%,x,9%,-3%,-7%,u
Cc1ccc2c(c1)nnn2C1CCN(C(=O)NCc2ccccc2)CC1,-7%,x,x,-10%,-7%,x,-9%,14%[46.1 µM]
COc1ccc(CNC(=O)CN2C(=O)C(c3ccccc3)Oc3cccnc32)cc1 (stereo not given),6%,x,x,-5%,-8%,-5%,x,x
Cc1ccc(C(=O)O/N=C(\N)c2ccccn2)cc1Cl,-3%,x,x,-19%,-11%,-26%,x,x
CC(Sc1ccccc1)C(=O)NN=C1CCCC1 (stereo not given),0%,x,x,-10%,3%,1%,11%[46.1 µM],11%[46.1 µM]
CCOC(=O)CCC(=O)NNC(=O)COc1ccc(C(C)C)cc1Br,0%,x,x,0%,10%,3%,x,x
CCCCOc1ccc(S(=O)(=O)n2c(C)nc3ccccc32)cc1,-2%,3.8%,-3%,-4%,6%,4%,-24%,u
COc1ccc(NC(=O)C2CCN(S(=O)(=O)c3c(C)noc3/C=C/c3ccc(C)cc3)CC2)cc1Cl,x,-1.8%,1%,-29%,x,x,-9%[46.1 µM],x
Cc1cc2c(C)c(C)c(=O)[nH]c2cc1N,-5%,u,u,26%,2%,11%,-13%,12%
COC(C[C@H](O)CC(=O)COCc1ccccc1)OC,-1%,x,x,6%,-4%,-2%,x,x
O=C1C2C3c4ccccc4C(c4ccccc43)C2C(=O)N1c1nc(-c2ccccc2)cs1 (stereo not given),-2%,-3.2%,u,-1%,-4%,9%,u,u
Cc1ccc(-c2ncns2)cc1,0%,x,x,7%,-7%,9%,-4%,4%
O=C(CSc1nnc(Cc2ccccc2)o1)c1ccccc1,0%,x,x,29%,-10%,-1%,-8%[46.1 µM],6%[46.1 µM]
Cc1ccc(-c2nc3ccccc3[nH]2)cc1NC(=O)c1ccc2c(c1)OCO2,-3%,-2.0%,u,1%,-15%,-69%,u,5%
O=C(CN1CCC(Cc2ccccc2)CC1)N1CCc2ccccc2C1,-2%,x,x,-21%,15%,7%,-27%,u
Cc1cc(NC(=O)Cn2c(=O)nc(-c3ccccc3F)c3cc(Cl)ccc32)ccc1Br,x,-0.2%,-21%,0%,x,x,1%[46.1 µM],u
Cc1ccc(-c2noc(CCCC(=O)NCC3CCCO3)n2)cc1 (stereo not given),0%,x,x,1%,-23%,-10%,u,u
Cc1cccc(C(C)C)c1NC(=O)c1cc2ccccc2o1,-5%,x,x,-14%,3%,-6%,x,x
CCOC(=O)Cc1ccc(NC(=O)c2ccc([N+](=O)[O-])cc2)cc1,-1%,x,x,-3%,72%,-5%,-20%,-19%
COCCCNC(=O)c1cc(C(=O)c2c(-c3c(Cl)cccc3Cl)noc2C)c[nH]1,u,2.2%,11%,u,1%,1%,u,u
O=C1c2sc3nc4ccccc4n3c2C(=O)N1c1ccccc1Cl,-11%,-13%,u,-30%,2%,-130%,27%,-21%
Cc1ccc(OCC(=O)NCc2ccccn2)cc1,-5%,5.3%,4%,6%,-9%,-3%,17%,3%
COc1cccc(OC)c1OCCCc1c(C)n[nH]c1C,-2%,1.6%,-12%,-15%,17%,2%,1%,-3%
O=C(CCC1N=C2c3ccccc3N=C(SCc3cccc(F)c3)N2C1=O)NCc1ccc(F)cc1 (stereo not given),x,-3.5%,10%,u,x,x,-9%[46.1 µM],x
Cc1ccc(-c2noc(CCC(=O)NCCN3CCOCC3)n2)cc1,1%,2.3%,-2%,-14%,-3%,-14%,3%,u
Cc1nc2ccccn2c1C(=O)N/N=C/c1ccccc1Cl,0%,x,x,-5%,-19%,-5%,21%,u
CC(=O)Nc1cc(N2C(=O)CCC2=O)ccc1Cl,12%,0.5%,-2%,-19%,12%,u,12%,11%
O=C(O)c1cc2cccc(S(=O)(=O)N3CCOCC3)c2cc1O,4%,1.2%,-13%,1%,6%,-7%,11%,0%&0%
O=C1CSc2ccc(S(=O)(=O)NCc3ccc(Cl)cc3)cc2N1,7%,x,x,35%[activator],9%,15%,x,x
COC(=O)c1sc(NC(=S)NC(=O)c2ccccc2F)nc1C,-4%,x,x,36%[activator],-17%,x,13%[46.1 µM],9%[46.1 µM]
COc1ccc2nc(NC(=O)CSc3nc4ccccc4o3)sc2c1,2%,5.2%,-18%,-15%,-10%,u,-18%,-20%
CCOC(=O)c1ccc(Oc2nc(NC)nc(SC)n2)cc1,-9%,0.4%,8%,x,4%,-7%,1%,3%
COc1cc(C(=O)N/C(=C\c2cn(S(=O)(=O)N(C)C)c3ccccc23)C(=O)N2CCCC2)cc(OC)c1OC,0%,x,x,-16%,-4%,-6%,x,x
CC(C)N1C(=O)CCC1C(=O)NCCc1ccc(Cl)cc1 (stereo not given),10%,-0.4%,-3%,-14%,-4%,u,9%,4%
CCCCCNC(=O)c1cc(S(=O)(=O)N2CCCC2)ccc1F,2%,0.4%,-7%,10%,15%,-11%,-24%,37%
CC(=O)n1cc([C@H]2C=C(C(=O)N3CCN(Cc4ccc5c(c4)OCO5)CC3)O[C@@H](OCCCCO)C2)c2ccccc21,-1%,x,x,-4%,-9%,-6%,x,x
Cc1cc(C)cc(NC(=S)N(Cc2ccc(Cl)cc2)Cc2ccc(C(=O)O)cc2)c1,-6%,x,x,1%,-16%,x,12%[46.1 µM],-21%[46.1 µM]

# Next part
SMILES,SARS PLP yeast,Cruzain inh Det,Cruzain inh noDet,StopGo reporter,RE007 growth inh,NS1 inh,Lassa entry inh,MARV entry inh
Cc1c(C)n(CCN(C)C)c2ncnc(NCc3ccccc3)c12,1%,x,x,-4%,4%,-1%,0%,-27%
COCCn1c(SCC(=O)Nc2cccc(OC)c2)nc2c(oc3ccccc32)c1=O,-1%,x,x,16%,-11%,10%,x,x
CC(OC(=O)Cn1cnc2c1c(=O)n(C)c(=O)n2C)C(=O)NC1CCCCC1C (stereo not given),3%,x,x,24%,-9%,x,-10%,6%
CC1CNCCN1S(=O)(=O)c1cccc2cnccc12 (stereo not given),2%,3.3%&-7.6%,-12%&3%,u,-19%&10%,-1%&-8%,u,u
CCN(Cc1ccccc1)C(=O)CC(=O)N(CC)Cc1ccccc1,4%,x,x,4%,6%,-3%,0%,4%[46.1 µM]
CC1=C(C(=O)Nc2ccc(C)cc2C)C(c2ccc(Br)cc2)n2ncc(C(=O)Nc3cccc(C)c3)c2N1 (stereo not given),x,-4.2%,u,-2%,x,x,13%[46.1 µM],x
